Vaccinia inh: blocks a specific stage of Vaccinia orthopoxvirus infection; Vaccinia-infected cells, mCherry/Venus stage reporter fluorescence; active compounds read low; some inactives read as strong as hits; activity change (mCherry), % (test concentration not listed); 89,000 tested, 0.01% active;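 active means mCherry past -33% and 40 or more points under the early reporter, replicates agreeing; inconclusive means past -33% without that gap or agreement; tested in A549 cells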;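 further: scaled between vehicle wells and reference inhibitor wells; 23 nL library stock went into each well; one replicate is shown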
Vaccinia inh Venus: second read-out of Vaccinia inh, no call of its own (marks repeat the call); activity change (Venus), %; measured here: Venus reporter, other viral stage;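 negative = less Venus signal; first of two replicates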
The depositor's hits bear a star; ? = inconclusive; · = not tested or not shown. A portion of the library, so the mix of outcomes need not match the whole.

Molecule | Vaccinia inh | Vaccinia inh Venus
CN(C)C(=O)c1cccc(-c2ccc([C@H]3[C@H]4CN(C(=O)Cc5ccccc5)CC(=O)N4[C@H]3CO)cc2)c1 | 3 | -5
Cc1noc(C)c1S(=O)(=O)Nc1ccc2c(c1)C(=O)N([C@H](C)CO)C[C@@H](C)[C@@H](CN(C)S(=O)(=O)c1ccc(F)cc1)OCCCC[C@@H](C)O2 | ? | ·
C[C@@H]1CCCCO[C@@H](CN(C)C(=O)Nc2ccccc2)[C@H](C)CN([C@@H](C)CO)C(=O)c2cc(NC(=O)CCCN(C)C)ccc2O1 | 20 | 7
CCCN(C)C[C@H]1Oc2cc(C#CC3CC3)ccc2S(=O)(=O)N([C@H](C)CO)C[C@H]1C | -15 | -9
CCCNC(=O)N1CC2(CCN(C(=O)C3CCOCC3)CC2)c2c([nH]c3cc(OC)ccc23)[C@H]1CO | 2 | -8
Cc1noc(C)c1S(=O)(=O)N(C)C[C@@H]1OCCCC[C@@H](C)Oc2ccc(NC(=O)Cc3ccccc3)cc2C(=O)N([C@H](C)CO)C[C@@H]1C | 10 | 2
C[C@@H]1CCCCO[C@@H](CN(C)C(=O)CCC(F)(F)F)[C@@H](C)CN([C@@H](C)CO)C(=O)c2cc(NS(=O)(=O)c3ccc(Cl)cc3)ccc2O1 | ? | ·
C[C@H]1CN([C@@H](C)CO)C(=O)Cc2cc(NS(C)(=O)=O)ccc2O[C@H]1CN(C)Cc1ccc(-c2ccccc2)cc1 | ? | ·
C[C@@H]1CN([C@@H](C)CO)C(=O)Cc2cc(NC(=O)C3CC3)ccc2O[C@H]1CN(C)Cc1ccc(C(F)(F)F)cc1 | ? | ·
COc1ccc(-c2cn(CC[C@@H]3CC[C@@H](NC(=O)Nc4ccc(F)cc4)[C@@H](CO)O3)nn2)cc1 | 9 | 9
Cn1cnc(S(=O)(=O)N[C@@H]2CC[C@@H](CC(=O)Nc3ccc(-c4ccccc4)cc3)O[C@@H]2CO)c1 | 1 | 5
C[C@H](CO)N1C[C@H](C)[C@@H](CN(C)Cc2ccc(C(=O)O)cc2)Oc2c(NS(=O)(=O)c3cn(C)cn3)cccc2C1=O | 32 | 18
COC(=O)C[C@H]1CC[C@@H]2[C@H](COc3ccc(NC(=O)Nc4cccc(C)c4)cc3C(=O)N2C)O1 | 4 | 0
CCC(=O)N1C[C@@H](C)[C@@H](OC)CN(C)C(=O)c2cc(NC(=O)NC3CCCC3)ccc2OC[C@H]1C | 2 | 5
C[C@H]1CN([C@@H](C)CO)C(=O)CCCn2nncc2CO[C@@H]1CN(C)S(=O)(=O)c1ccc(F)cc1 | -1 | -3
COc1ccc(CN(C)C[C@@H]2Oc3ccc(NC(=O)Nc4ccc(F)cc4)cc3CC(=O)N([C@@H](C)CO)C[C@H]2C)cc1 | -22 | -16
O=C(C[C@H]1CC[C@H](NC(=O)c2ccccc2)[C@H](CO)O1)Nc1ccc(-c2ccccc2)cc1 | ? | ·
O=C(C[C@@H]1C[C@H]2c3cc(NC(=O)NC4CCCC4)ccc3O[C@H]2[C@@H](CO)O1)NCc1cccnc1 | 16 | 14
C[C@H]1CCCCO[C@H](CN(C)CC2CC2)[C@@H](C)CN([C@@H](C)CO)C(=O)c2cc(NC(=O)c3ccccc3)ccc2O1 | -17 | -7
OC[C@H]1[C@H]2c3ccccc3NC[C@H]2N1Cc1ccccc1Cl | -27 | -14
COc1ccc(NC(=O)Nc2ccc3c(c2)CC(=O)N([C@@H](C)CO)C[C@H](C)[C@H](CN(C)Cc2ccccc2)O3)cc1 | -8 | -7
CO[C@@H](CN(C)Cc1cc(F)ccc1F)[C@@H](C)CN(C(=O)Nc1ccc(C(F)(F)F)cc1)[C@@H](C)CO | -23 | -19
COc1ccccc1CNC(=O)C[C@H]1CC[C@H]2[C@@H](COC[C@H](O)CN2C(=O)Nc2ccc(C(F)(F)F)cc2)O1 | -25 | -24
CCCC(O)C#Cc1cnc2c(c1)C(=O)N([C@H](C)CO)C[C@H](C)[C@H](CN(C)C(=O)NC1CCCCC1)O2 (some centres undefined) | 1 | 4
CCCNC(=O)N[C@H]1CC[C@H](CCn2cc(C3CCCCC3)nn2)O[C@H]1CO | -7 | 1
O=C(c1ccccn1)N1CC(=O)N2[C@@H](CO)[C@@H](c3ccc(C#CC4CCCC4)cc3)[C@@H]2C1 | 15 | -23
C[C@@H]1CN([C@@H](C)CO)C(=O)CCCn2nncc2CO[C@H]1CN(C)C(=O)Nc1ccc(C(F)(F)F)cc1 | 16 | 12
C[C@@H]1CN([C@@H](C)CO)C(=O)c2cc(C3=CCCCC3)cnc2O[C@H]1CN(C)C(=O)c1ccccn1 | 33 | 19
C[C@@H]1CN([C@H](C)CO)C(=O)c2cc(NC(=O)Nc3ccc(F)cc3)ccc2O[C@@H](C)CCCCO[C@H]1CN(C)C(=O)NC1CCCCC1 | -23 | -17
CCS(=O)(=O)N1CCCCN2[C@H](CO)[C@@H](c3ccc(-c4cccc(C#N)c4)cc3)[C@@H]2C1 | 24 | 20
O=C(Nc1cccc(F)c1)N[C@@H]1CC[C@@H](CCn2cc(Cc3ccccc3)nn2)O[C@H]1CO | -15 | 0
COc1ccc(NC(=O)N(C)C[C@H]2Oc3ccc(NS(=O)(=O)c4ccc(OC)cc4)cc3C(=O)N([C@H](C)CO)C[C@@H]2C)cc1 | 4 | 3
CC(C)NC(=O)N(C)C[C@H]1Oc2ccc(NC(=O)Cc3ccccc3)cc2C(=O)N([C@H](C)CO)C[C@H]1C | 4 | 5
COCc1cn([C@H]2C[C@@H]3O[C@@H](CO)CC[C@@H]3O[C@@H]2CCc2ccc(-c3ccc(OC)cc3)cc2)nn1 | ? | ·
C[C@@H]1CN([C@H](C)CO)C(=O)c2cccc(NC(=O)Nc3cccc4ccccc34)c2O[C@@H]1CN(C)S(=O)(=O)c1cn(C)cn1 | 7 | -4
COc1ccc(NC(=O)Nc2ccc3c(c2)C(=O)N([C@H](C)CO)C[C@@H](C)[C@@H](CN(C)S(=O)(=O)c2cccs2)OCCCC[C@H](C)O3)cc1 | 10 | 3
C[C@@H]1CN([C@@H](C)CO)C(=O)c2cccc(NC(=O)Nc3ccc4c(c3)OCO4)c2O[C@@H]1CN(C)Cc1ccc(-c2ccccc2)cc1 | -26 | -15
C[C@@H]1CN([C@H](C)CO)C(=O)c2cc(NC(=O)Cc3cn(C)c4ccccc34)ccc2O[C@H]1CN(C)Cc1ccc(C(=O)O)cc1 | 4 | 1
CN(C)C(=O)c1cccc(-c2ccccc2[C@@H]2[C@@H](C#N)N(C(=O)C3CCCCC3)[C@H]2CO)c1 | -1 | -3
N#C[C@H]1[C@H](c2ccc(-c3ccccc3F)cc2)[C@H](CO)N1C(=O)Cc1ccccc1 | 11 | -1

An excerpt from above in order of count of non-hydrogen atoms, falling:
Molecule | Vaccinia inh | Vaccinia inh Venus
COc1ccccc1CNC(=O)C[C@H]1CC[C@H]2[C@@H](COC[C@H](O)CN2C(=O)Nc2ccc(C(F)(F)F)cc2)O1 | -25 | -24
COc1ccc(-c2cn(CC[C@@H]3CC[C@@H](NC(=O)Nc4ccc(F)cc4)[C@@H](CO)O3)nn2)cc1 | 9 | 9
O=C(Nc1cccc(F)c1)N[C@@H]1CC[C@@H](CCn2cc(Cc3ccccc3)nn2)O[C@H]1CO | -15 | 0

Returning to the listing, starting 2 compounds before the break.
Molecule | Vaccinia inh | Vaccinia inh Venus
CN(C)C(=O)c1cccc(-c2ccccc2[C@@H]2[C@@H](C#N)N(C(=O)C3CCCCC3)[C@H]2CO)c1 | -1 | -3
N#C[C@H]1[C@H](c2ccc(-c3ccccc3F)cc2)[C@H](CO)N1C(=O)Cc1ccccc1 | 11 | -1
COc1ccc(S(=O)(=O)N(C)C[C@H]2Oc3ccc(NS(=O)(=O)c4cccs4)cc3CC(=O)N([C@H](C)CO)C[C@@H]2C)cc1 | -15 | -8
CCCN(C)C[C@@H]1Oc2ncc(C#CC3CCCCC3)cc2C(=O)N([C@H](C)CO)C[C@H]1C | -24 | -19
O=C(Nc1ccc(F)cc1)N1CCCCN2[C@@H](CO)[C@H](c3ccc(C#Cc4ccccc4)cc3)[C@@H]2C1 | ? | ·
C[C@@H]1CCCCO[C@H](CN(C)Cc2ccc(C(F)(F)F)cc2)[C@@H](C)CN([C@@H](C)CO)C(=O)c2cc(NC(=O)c3ccncc3)ccc2O1 | ? | ·
COc1ccc(C#Cc2ccc3c(c2)[C@H]2[C@H](CCN2C(=O)Nc2ccc(C(F)(F)F)cc2)[C@@H](CO)N3C)cc1 | 0 | 4
Cc1ccc(S(=O)(=O)Nc2ccc3c(c2)CC(=O)N([C@@H](C)CO)C[C@@H](C)[C@@H](CN(C)Cc2ccc(C(=O)Nc4ccccc4N)cc2)O3)cc1 | -11 | -3
O=C(Cc1cccnc1)N[C@H]1CC[C@@H](CCNS(=O)(=O)c2ccccc2Cl)O[C@H]1CO | 10 | 7
C[C@@H]1CN([C@@H](C)CO)C(=O)c2cccc(NC(=O)c3cnccn3)c2O[C@H]1CN(C)Cc1ccc(Cl)c(Cl)c1 | -34 | -15
CCNC(=O)c1cc2c(c(-c3cccc(-c4ccccc4F)c3)n1)[C@@H](CCO)N(C(=O)CC)C2 | 1 | 5
CCCN(C)C[C@@H]1Oc2cc(C#CCC(C)C)ccc2S(=O)(=O)N([C@H](C)CO)C[C@@H]1C | -18 | -16
CN1C(=O)c2cc(NC(=O)c3cccc(F)c3)ccc2OC[C@@H]2O[C@@H](CC(=O)N3CCc4ccccc4C3)CC[C@H]21 | -3 | 3
COc1ccc(S(=O)(=O)N(C)C[C@@H]2Oc3ccc(NC(=O)Nc4c(C)noc4C)cc3C(=O)N([C@@H](C)CO)C[C@H]2C)cc1 | 9 | 2
O=C(C[C@@H]1CC[C@H](NS(=O)(=O)c2ccccc2F)[C@@H](CO)O1)NCCCN1CCOCC1 | 6 | 5
Cc1noc(C)c1NC(=O)N(C)C[C@H]1Oc2ccc(NS(=O)(=O)c3cccs3)cc2C(=O)N([C@H](C)CO)C[C@H]1C | -6 | 2
C[C@@H]1CN([C@H](C)CO)C(=O)Cc2cc(NC(=O)CCN3CCOCC3)ccc2O[C@@H]1CN(C)Cc1ccc(Oc2ccccc2)cc1 | -21 | -23
COc1ccc(NC(=O)N(C)C[C@H]2Oc3ncc(C#CC(C)C)cc3C(=O)N([C@H](C)CO)C[C@@H]2C)cc1 | 0 | 4
C[C@H](NC(=O)C[C@H]1C=C[C@@H](NC(=O)C2CC2)[C@@H](CO)O1)c1ccccc1 | 6 | 7
C[C@H](CO)N1C[C@H](C)[C@@H](CN(C)C(=O)NC2CCCC2)Oc2cc(-c3cncnc3)ccc2S1(=O)=O | 2 | 17
CN(C)C(=O)c1cccc(-c2ccc3n(c2=O)C[C@@H]2N[C@H]3[C@H](C(=O)NC3CCC3)[C@H]2CO)c1 | 9 | 17
C[C@H](CO)N1C[C@H](C)[C@H](CN(C)Cc2ccc(Oc3ccccc3)cc2)Oc2ccc(NS(=O)(=O)c3ccc(Cl)cc3)cc2C1=O | ? | ·

A different layout for part of the listing above:
molecule: Cc1ccc(S(=O)(=O)Nc2ccc3c(c2)CC(=O)N([C@@H](C)CO)C[C@@H](C)[C@@H](CN(C)Cc2ccc(C(=O)Nc4ccccc4N)cc2)O3)cc1
  Vaccinia inh = -11	Vaccinia inh Venus = -3
molecule: O=C(Cc1cccnc1)N[C@H]1CC[C@@H](CCNS(=O)(=O)c2ccccc2Cl)O[C@H]1CO
  Vaccinia inh = 10	Vaccinia inh Venus = 7

Additional compounds follow:
Molecule | Vaccinia inh | Vaccinia inh Venus
OC[C@H]1CC[C@@H]2O[C@H](CCc3ccc(-c4ccc(F)cc4)cc3)[C@H](n3cc(C4CC4)nn3)C[C@@H]2O1 | ? | ·
COc1ccc(NC(=O)N(C)C[C@H]2OCCCC[C@H](C)Oc3ccc(NS(=O)(=O)c4ccc(F)cc4)cc3C(=O)N([C@@H](C)CO)C[C@H]2C)cc1 | 9 | -3
C[C@@H]1CN([C@@H](C)CO)C(=O)c2cc(C#CC3(O)CCCC3)cnc2O[C@H]1CN(C)C(=O)CN(C)C | 24 | 12
CN1CCN(C(=O)c2cc3c(c(-c4cccc(-c5ccc(C(=O)N(C)C)cc5)c4)n2)[C@H](CCO)N([S@@](=O)C(C)(C)C)C3)CC1 | 16 | 18
COc1ccc(S(=O)(=O)N(C)C[C@@H]2Oc3c(NC(=O)NC(C)C)cccc3C(=O)N([C@@H](C)CO)C[C@@H]2C)cc1 | -22 | -18
CCC(=O)N1[C@H](C(=O)N[C@H](C)c2ccccc2)[C@@H](CO)[C@@H]2Cn3c(cccc3=O)[C@@H]21 | -1 | 1
N#C[C@@H]1[C@H](c2ccc(-c3ccc(F)cc3)cc2)[C@@H](CO)N1C(=O)Cc1ccccc1 | -33 | -28
O=C(Nc1ccccc1)N1C[C@H]2[C@@H](c3ccccc31)[C@@H](CO)N2C(=O)c1ccncc1 | 9 | 7
C[C@H](CO)N1C[C@H](C)[C@@H](CN(C)C(=O)c2ccncc2)Oc2ncc(C3=CCCC3)cc2C1=O | 9 | 1
C[C@@H]1CN([C@H](C)CO)C(=O)c2cc(NS(=O)(=O)c3ccc(F)cc3)ccc2O[C@@H](C)CCCCO[C@@H]1CN(C)S(C)(=O)=O | 21 | 16
CC(C)C#Cc1ccc([C@@H]2[C@@H](CO)N(C(=O)c3cccc(F)c3)[C@H]2C#N)cc1 | 0 | -3
COCCNC(=O)C[C@@H]1C=C[C@H](NS(=O)(=O)c2ccc(C)cc2)[C@@H](CO)O1 | -10 | -2
O=C(Nc1cccc(F)c1)N1CCCCN2[C@H](CO)[C@H](c3ccc(C#Cc4cccnc4)cc3)[C@@H]2C1 | -12 | -5
CC(=O)N(C)C[C@@H]1Oc2cc(-c3cncnc3)ccc2S(=O)(=O)N([C@H](C)CO)C[C@H]1C | 0 | 1
CNC[C@H]1OCCCC[C@H](C)Oc2ccc(NC(=O)C3CCCCC3)cc2C(=O)N([C@H](C)CO)C[C@@H]1C | 9 | 10
C/C=C/c1ccc2c(c1)O[C@@H](CN(C)C(=O)C1CCCCC1)[C@H](C)CN([C@H](C)CO)S2(=O)=O | -16 | -9
Cc1noc(C)c1S(=O)(=O)Nc1ccc2c(c1)C(=O)N([C@@H](C)CO)C[C@@H](C)[C@H](CN(C)S(=O)(=O)c1ccc(Cl)cc1)O2 | -4 | -4
